UUG fidelity: modulators of start codon recognition fidelity in yeast | S. cerevisiae UUG-firefly luciferase reporter, luminescence/redox ratio | actives 0.13% (n = 350,000) | activity score, % at 18.7 µM;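 active = replicate mean at a twofold rise or more, about +100% in these data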;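 also: firefly luciferase made from a UUG start codon reports start codon fidelity; reporter light over untreated wells divided by growth signal over untreated wells; some hits fall short of that in this replicate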
The depositor's hits bear a star. Some of the compounds tested; rates above refer to the full screens.

SMILES	UUG fidelity
COc1ccc(NC(=O)Nc2ccc3c(c2)C(=O)N([C@H](C)CO)C[C@H](C)[C@@H](CN(C)Cc2ccncc2)O3)cc1	-10.4
Cc1ccccc1S(=O)(=O)N1CC[C@@H]2[C@@H](CO)Nc3ccc(-c4ccccc4)cc3[C@@H]21	-27.1
CO[C@H]1CN(C)C(=O)c2ccc(NC(=O)c3cc(C)on3)cc2OC[C@@H](C)N(CC2CC2)C[C@H]1C	-6.4
CN1C(=O)c2cc(NC(=O)Nc3cccc(Cl)c3)ccc2OC[C@@H]2O[C@@H](CC(=O)NCCc3ccncc3)CC[C@H]21	33.5
CO[C@@H]1CN(C)C(=O)c2ccc(NC(=O)c3cnccn3)cc2OC[C@@H](C)N(C(C)=O)C[C@@H]1C	2.6
CN(C)CC#Cc1ccc([C@@H]2[C@H](CO)N3CCCCN(C(=O)NC4CCCC4)C[C@@H]23)cc1	0.8
COCC(=O)Nc1ccc2c(c1)C(=O)N(C)C[C@H](OC)[C@H](C)CN(C(=O)C1CCCC1)[C@H](C)CO2	-4.1
Cc1noc(C)c1S(=O)(=O)Nc1cccc2c1O[C@H](CN(C)C(=O)NC1CCCCC1)[C@H](C)CN([C@@H](C)CO)C2=O	-3.6
COC(=O)C[C@H]1CC[C@H]2[C@H](COc3ccc(NC(=O)Nc4cccc(F)c4)cc3C(=O)N2C)O1	-6.1
CO[C@H]1CN(C)C(=O)c2cc(NC(=O)c3cnccn3)ccc2OC[C@@H](C)N(CCc2ccccc2)C[C@H]1C	-14.1
COCC#Cc1ccc([C@@H]2[C@H](CO)N3CCCCN(S(=O)(=O)c4ccccc4C)C[C@@H]23)cc1	-3.6
C[C@H](CO)N1C[C@H](C)[C@H](CN(C)C(=O)Nc2ccc3c(c2)OCO3)Oc2ccc(NS(C)(=O)=O)cc2C1=O	-10.0
CO[C@H]1CN(C)C(=O)c2ccc(NS(=O)(=O)c3cn(C)cn3)cc2OC[C@@H](C)N(Cc2cccc(F)c2)C[C@H]1C	-0.2
O=C(c1cccc(F)c1)N1CCCCN2[C@H](C1)[C@@H](c1ccc(-c3ccccc3)cc1)[C@@H]2CO	0.1
COc1ccc(CN(C)C[C@H]2Oc3c(NS(=O)(=O)c4cn(C)cn4)cccc3C(=O)N([C@@H](C)CO)C[C@@H]2C)cc1	-13.3
C[C@@H]1CN([C@H](C)CO)C(=O)Cc2cc(NC(=O)NC3CCCCC3)ccc2O[C@@H]1CN(C)C(=O)Nc1ccc(F)cc1	17.5
CN(C)C(=O)c1cccc(-c2ccc3c(c2)[C@H]2[C@H](CCN2S(=O)(=O)c2cn(C)cn2)[C@H](CO)N3)c1	-11.8
C[C@@H]1CN([C@@H](C)CO)C(=O)c2cc(NS(=O)(=O)c3cn(C)cn3)ccc2O[C@@H]1CN(C)S(C)(=O)=O	-12.8
CC(C)NC(=O)N(C)C[C@@H]1Oc2ccc(NS(C)(=O)=O)cc2CC(=O)N([C@@H](C)CO)C[C@H]1C	-11.4
CO[C@H]1CN(C)C(=O)c2ccc(NC(=O)c3ccccc3F)cc2OC[C@@H](C)N(C(C)=O)C[C@H]1C	26.2
CC=Cc1ccc2n(c1=O)C[C@H]1[C@H](CO)[C@@H](C(=O)NC3CCC3)N(C(=O)C3CCC3)[C@@H]21 (mixture of isomers)	12.7
CC(C)NC(=O)N(C)C[C@@H]1Oc2ccc(NS(=O)(=O)c3ccccc3)cc2C(=O)N([C@H](C)CO)C[C@@H]1C	7.3
Cc1cccc(S(=O)(=O)N(C)C[C@@H]2OCc3ccccc3-c3c(n(C)c4ccccc34)C(=O)N([C@@H](C)CO)C[C@@H]2C)c1	4.2
CN1C[C@@H]2[C@H](c3ccccc31)[C@@H](CO)N2C(=O)C1CC1	-21.4
CO[C@H]1CN(C)C(=O)c2cc(NC(=O)Nc3c(C)noc3C)ccc2OC[C@@H](C)N(CC2CC2)C[C@@H]1C	0.0
C[C@@H]1CN([C@@H](C)CO)C(=O)c2cc(N(C)C)ccc2O[C@@H]1CN(C)C(=O)Nc1ccccc1	-5.4
CN1CCCCN2[C@@H](CO)[C@H](c3ccc(C#Cc4ccccc4F)cc3)[C@@H]2C1	15.6
Cn1cnc(S(=O)(=O)N2CCCCN3[C@H](C2)[C@H](c2ccc(-c4ccccc4)cc2)[C@@H]3CO)c1	2.4
O=C(C[C@H]1CC[C@@H]2[C@H](COC[C@H](O)CN2C(=O)c2ccncc2)O1)NC1Cc2ccccc2C1	5.4
Cc1ccc(S(=O)(=O)Nc2ccc3c(c2)C(=O)N([C@H](C)CO)C[C@@H](C)[C@@H](CN(C)Cc2ccc(Cl)c(Cl)c2)O3)cc1	-2.8
CN1C(=O)c2cc(NC(=O)C3CCCC3)ccc2OC[C@H]2O[C@@H](CC(=O)NCC(F)(F)F)CC[C@H]21	1.2
O=C(c1cccnc1)N1C[C@H]2[C@@H](c3ccccc31)[C@@H](CO)N2C(=O)Nc1ccccc1Cl	-8.2
CC(C)C#Cc1ccc([C@H]2[C@@H](CO)N3CCCCN(S(=O)(=O)Cc4ccccc4)C[C@@H]23)cc1	-21.0
COc1ccc(CN(C)C[C@H]2Oc3ccc(NS(=O)(=O)c4ccc(Cl)cc4)cc3CC(=O)N([C@@H](C)CO)C[C@H]2C)cc1	3.1
C[C@H](CO)N1C[C@H](C)[C@H](CN(C)C(=O)Nc2ccc3c(c2)OCO3)Oc2ccc(NC(=O)c3ccncc3)cc2C1=O	0.9
O=C(C1CC1)N1C[C@H]2[C@@H](c3ccccc31)[C@@H](CO)N2C(=O)c1cccc(F)c1	-11.6
COc1ccccc1NC(=O)N1C[C@@H](O)COC[C@H]2O[C@H](CC(=O)NCCc3ccccc3)CC[C@@H]21	12.6
CC(C)NC(=O)Nc1ccc2c(c1)CC(=O)N([C@H](C)CO)C[C@H](C)[C@@H](CN(C)S(=O)(=O)c1ccc(Cl)cc1)O2	-1.6
O=C(C[C@H]1CC[C@@H]2[C@H](COC[C@H](O)CN2S(=O)(=O)c2ccc(Cl)cc2)O1)NCCN1CCCC1	-4.2
CC(C)NC(=O)Nc1ccc2c(c1)CC(=O)N([C@@H](C)CO)C[C@@H](C)[C@@H](CN(C)S(=O)(=O)c1ccc(Cl)cc1)O2	25.1
CC(C)NC(=O)Nc1cccc2c1O[C@@H](CN(C)C(=O)Nc1ccc3c(c1)OCO3)[C@@H](C)CN([C@@H](C)CO)C2=O	9.9
COc1ccccc1NC(=O)N(C)C[C@H]1OCc2cnnn2CCCC(=O)N([C@@H](C)CO)C[C@@H]1C	10.7
COc1ccccc1CN1C[C@@H](C)[C@H](OC)CN(C)C(=O)c2cc(NC(=O)Nc3ccccc3OC)ccc2OC[C@H]1C	5.5
CCCNC(=O)Nc1ccc2c(c1)C(=O)N(C)C[C@@H](OC)[C@H](C)CN(Cc1cncnc1)[C@@H](C)CO2	12.9
C[C@@H]1CN([C@@H](C)CO)C(=O)c2cc(NC(=O)Cn3cnnn3)ccc2O[C@@H]1CN(C)S(=O)(=O)c1cccs1	-8.6
O=C(C[C@@H]1CC[C@@H]2[C@H](COC[C@@H](O)CN2Cc2ccc3c(c2)OCO3)O1)N1CCOCC1	-5.7
CCCC(=O)Nc1ccc2c(c1)C(=O)N(C)[C@@H]1CC[C@H](CC(=O)NCC3CC3)O[C@H]1CO2	22.0
COCCNC(=O)C[C@@H]1C[C@@H]2c3cc(NC(=O)Nc4ccccc4)ccc3O[C@@H]2[C@@H](CO)O1	-6.1
CN(C)CC(=O)N1C[C@H]2[C@@H](c3ccccc31)[C@@H](CO)N2C(=O)c1ccccn1	-1.9
CC(C)NC(=O)Nc1cccc2c1O[C@H](CN(C)C(=O)Nc1ccc3c(c1)OCO3)[C@H](C)CN([C@H](C)CO)C2=O	18.1
COCC(=O)Nc1ccc2c(c1)OC[C@@H](C)N(C(=O)Cc1cccnc1)C[C@H](C)[C@H](OC)CN(C)C2=O	17.1
CCC(=O)NC[C@H]1[C@@H](c2ccccc2)[C@H](CO)N1C(=O)C1CC1	-6.9
O=C(C1CCC1)N1C[C@H]2[C@@H](c3ccccc31)[C@@H](CO)N2C(=O)Cc1ccccn1	3.3
CCNC(=O)C[C@H]1CC[C@H]2[C@@H](COC[C@H](O)CN2Cc2ccc(Cl)c(Cl)c2)O1	3.5
COc1ccc(-c2ccc3c(c2)[C@@H]2[C@@H](CCN2C(=O)Cc2cccnc2)[C@H](CO)N3C)cc1	10.4
C[C@H]1CN([C@@H](C)CO)C(=O)c2cc(NC(=O)CCC(F)(F)F)ccc2O[C@@H]1CN(C)Cc1ccc(C(=O)O)cc1	-13.5
CO[C@@H]1CN(C)C(=O)c2ccc(NC(=O)c3ccc4c(c3)OCO4)cc2OC[C@@H](C)NC[C@@H]1C	-4.5
C[C@@H]1CN([C@H](C)CO)C(=O)c2cc(NS(=O)(=O)c3ccccc3)ccc2O[C@@H]1CN(C)S(C)(=O)=O	-13.6
CC=Cc1ccc2n(c1=O)C[C@H]1[C@H](CO)[C@@H](C(=O)NCCC)[C@@H]2N1C(=O)C1CCCC1 (mixture of isomers)	1.4
O=C(c1ccccc1)N1C[C@@H]2[C@H](c3ccccc31)[C@H](CO)N2C(=O)Nc1ccccc1Cl	-4.6

The closing 2 entries of the section above open the next one:
SMILES	UUG fidelity
CC=Cc1ccc2n(c1=O)C[C@H]1[C@H](CO)[C@@H](C(=O)NCCC)[C@@H]2N1C(=O)C1CCCC1 (mixture of isomers)	1.4
O=C(c1ccccc1)N1C[C@@H]2[C@H](c3ccccc31)[C@H](CO)N2C(=O)Nc1ccccc1Cl	-4.6
O=C(Nc1ccccc1)N1C[C@H]2[C@@H](c3ccccc31)[C@H](CO)N2C(=O)c1ccccc1F	-11.4
CO[C@@H]1CN(C)C(=O)c2cc(NC(C)=O)ccc2OC[C@H](C)N(C(=O)Cc2ccccn2)C[C@H]1C	-7.1
CCCC(=O)Nc1ccc2c(c1)C(=O)N(C)C[C@@H](OC)[C@H](C)CN(C(=O)c1cccnc1)[C@@H](C)CO2	-3.6
OC[C@@H]1[C@@H](c2ccc(C#Cc3cccnc3)cc2)[C@H]2CN(Cc3ccccc3F)CCCCN12	4.1
COc1cccc(C(=O)N2C[C@H]3[C@@H](c4ccccc42)[C@H](CO)N3C(C)=O)c1	11.6
CC(C)NC[C@@H]1[C@H](c2ccc(C3=CCCCC3)cc2)[C@H](CO)N1S(C)(=O)=O	-14.2
O=C(c1ccccc1F)N1C[C@@H]2[C@H](c3ccccc31)[C@@H](CO)N2C(=O)c1ccccc1	-0.2
CO[C@@H]1CN(C)C(=O)c2cc(NC(=O)CC(F)(F)F)ccc2OC[C@@H](C)N(C(=O)C2CCCC2)C[C@H]1C	-5.8
CCCNC(=O)C[C@@H]1CC[C@@H]2[C@H](COC[C@H](O)CN2Cc2ccncc2)O1	-7.2
O=C(C[C@@H]1C[C@@H]2c3cc(NC(=O)CC4CC4)ccc3O[C@@H]2[C@H](CO)O1)NCc1cccc(F)c1	-10.4
CN(C)CC(=O)Nc1ccc2c(c1)[C@H]1C[C@H](CC(=O)N3CCN(C)CC3)O[C@H](CO)[C@H]1O2	4.0
CN1[C@H](CO)[C@@H]2c3ccccc3N(C(=O)Nc3cc(F)ccc3F)C[C@@H]21	-8.3
C[C@@H]1CN([C@@H](C)CO)C(=O)c2cc(NC(=O)Nc3cccc4ccccc34)ccc2O[C@@H]1CN(C)Cc1ccc(C(=O)Nc2ccccc2N)cc1	-4.7
O=C(c1ccccc1)N1C[C@@H]2[C@H](c3ccccc31)[C@@H](CO)N2C(=O)CN1CCOCC1	-6.3
CN(C)C(=O)c1cccc(-c2ccc([C@@H]3[C@H](CO)N4CCCCN(C(=O)C5CCCC5)C[C@@H]34)cc2)c1	2.2
CC(C)CN(C[C@H]1N[C@H](CO)[C@@H]1c1ccccc1)C(=O)CN(C)C	-3.9
CCCNC(=O)N1C[C@H]2[C@@H](c3ccccc31)[C@@H](CO)N2C(=O)Nc1ccccc1F	-9.2
CN1CCN(C(=O)C[C@@H]2CC[C@@H]3[C@H](COC[C@H](O)CN3CC3CCCCC3)O2)CC1	-0.4
CO[C@@H]1CN(C)C(=O)c2cc(NS(=O)(=O)c3ccccc3C)ccc2OC[C@H](C)NC[C@H]1C	-6.9
O=S(=O)(c1cccc(F)c1)N1CC[C@@H]2[C@H](CO)Nc3ccc(Br)cc3[C@@H]21	5.1
COc1ccc(C#Cc2ccc3c(c2)[C@@H]2[C@@H](CCN2C(=O)NC(C)C)[C@@H](CO)N3C)cc1	17.9
COc1cccc(-c2ccc3c(c2)[C@@H]2[C@@H](CCN2C(=O)c2ccccn2)[C@H](CO)N3)c1	-4.8
COc1ccc(CN(C)C[C@@H]2Oc3ccc(NS(=O)(=O)c4ccc(F)cc4)cc3C(=O)N([C@@H](C)CO)C[C@@H]2C)cc1	-8.1
CN(C)C(=O)C[C@H]1CC[C@H]2[C@@H](COC[C@H](O)CN2C(=O)C2CCOCC2)O1	0.9
COCC#Cc1ccc([C@H]2[C@@H](CO)N3CCCCN(C(=O)Nc4cc(F)ccc4F)C[C@H]23)cc1	12.5
CCN1[C@H](C(=O)OC)[C@@H](CO)[C@@H]2Cn3c(ccc(-c4cccc(C(=O)N(C)C)c4)c3=O)[C@@H]21	-4.6
C[C@H](CO)N1C[C@H](C)[C@H](CN(C)CC2CCCC2)OCc2cn(nn2)CCCC1=O	16.4
Cn1cnc(S(=O)(=O)N2CCCCN3[C@H](C2)[C@H](c2ccc(-c4cccc(F)c4)cc2)[C@@H]3CO)c1	-9.0

Not a retest: an excerpt of the list.
SMILES	UUG fidelity
COc1cccc(-c2ccc3c(c2)[C@@H]2[C@@H](CCN2C(=O)c2ccccn2)[C@H](CO)N3)c1	-4.8
COc1ccc(CN(C)C[C@@H]2Oc3ccc(NS(=O)(=O)c4ccc(F)cc4)cc3C(=O)N([C@@H](C)CO)C[C@@H]2C)cc1	-8.1
CN(C)C(=O)C[C@H]1CC[C@H]2[C@@H](COC[C@H](O)CN2C(=O)C2CCOCC2)O1	0.9
COCC#Cc1ccc([C@H]2[C@@H](CO)N3CCCCN(C(=O)Nc4cc(F)ccc4F)C[C@H]23)cc1	12.5
CCN1[C@H](C(=O)OC)[C@@H](CO)[C@@H]2Cn3c(ccc(-c4cccc(C(=O)N(C)C)c4)c3=O)[C@@H]21	-4.6
C[C@H](CO)N1C[C@H](C)[C@H](CN(C)CC2CCCC2)OCc2cn(nn2)CCCC1=O	16.4
Cn1cnc(S(=O)(=O)N2CCCCN3[C@H](C2)[C@H](c2ccc(-c4cccc(F)c4)cc2)[C@@H]3CO)c1	-9.0

Source: PubChem (Broad Institute)
